rRNA inh HTS: selective bacterial rRNA inhibition in E. coli; AID 720706; GFP signal change (wild-type ribosome), % (concentration not given with the values); 1.6% of 350,000 active; E. coli WT GFP vs humanized-ribosome RFP mutants, fluorescence, 24 h; hits give low values; DMSO median 0, no signal -100;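 active = significant combined selectivity score with lowered wild-type GFP, culture density cut under 30%, mutant RFP and density less affected; inactive = any of these conditions unmet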; also: one replicate is shown; some compounds called inactive have numbers as strong as hits
Beta2AR agonist: human beta-2 adrenergic receptor agonism by FAP. P07550. Am2.2-beta2AR cells, FAP receptor internalization, flow cytometry; reference of the scale not given here. response, % (test concentration not listed). 0.43% of 340,000 active. AID 504454;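 active = response above a set limit, near 3 SD of response in nonfluorescent compounds, cut at about 42% in these data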;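 also: stock transfer was 100 nL into about 11 µL; a reference agonist was the positive control; negative values mostly stem from fluorescent compounds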
ALR inh: blocks human ALR sulfhydryl oxidase activity; 3.8% of 290,000 active; inhibition, % (concentration not given with the values); purified ALR, DTT oxidation, H2O2 HRP-luminol luminescence; P55789; AID 485317;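 active = mean and each replicate at 75% or more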;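 also: stock transfer was 7.5 nL into about 7.5 µL; 0% = neutral wells and 100% = wells with inactivated enzyme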
UCH37 inh: human UCH37 deubiquitinating enzyme inhibition; inhibition, % (concentration not given with the values); 0.33% of 330,000 active; purified proteasome/UCH37, Ub-AMC cleavage fluorescence;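 active = mean of two replicates above 20%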;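 also: 0% = compound-free wells with enzyme and 100% = wells lacking proteasome; stock transfer was 100 nL into about 20 µL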
Target sequence (Q9Y5K5 whole entry, looked up): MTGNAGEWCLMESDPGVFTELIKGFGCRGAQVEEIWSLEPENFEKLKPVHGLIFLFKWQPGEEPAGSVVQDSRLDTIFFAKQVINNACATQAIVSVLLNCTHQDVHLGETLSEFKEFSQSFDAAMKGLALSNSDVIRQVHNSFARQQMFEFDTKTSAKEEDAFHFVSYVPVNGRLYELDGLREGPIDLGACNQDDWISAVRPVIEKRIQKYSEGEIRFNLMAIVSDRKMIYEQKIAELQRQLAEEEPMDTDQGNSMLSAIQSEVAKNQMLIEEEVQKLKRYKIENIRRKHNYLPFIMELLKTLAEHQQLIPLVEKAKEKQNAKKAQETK
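System: Proteasome-associated human UCH37 deubiquitinase; Input: 0.15 nM proteasome in added enzyme buffer; Also added: Ub-AMC substrate from 1 µM stock; Incubation: 30 min compound-proteasome preincubation then 25 min substrate reaction, room temperature; Detection: fluorescence, ex 355 nm, em 460 nm; Read-out: % inhibition of Ub-AMC cleavage fluorescence; Benchmarks: no-proteasome and no-compound wells.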
HNF4A DNA FP: change in binding of human HNF4 alpha to DNA | P41235 | HNF4a-FITC DNA binding, fluorescence polarization, 1 h | activity change, % at 10 µM | 0.3% of 360,000 active | AID 1224865; in the data active = activity change above about 30%, passing the limit was not always enough;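 also: controls were the assay level and a saturating level of protein; the project sought stronger binding though the title names inhibitors; some compounds called inactive have numbers as strong as hits; positive values seem to mean higher polarization but the record does not say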
Target sequence (P41235 whole entry, looked up): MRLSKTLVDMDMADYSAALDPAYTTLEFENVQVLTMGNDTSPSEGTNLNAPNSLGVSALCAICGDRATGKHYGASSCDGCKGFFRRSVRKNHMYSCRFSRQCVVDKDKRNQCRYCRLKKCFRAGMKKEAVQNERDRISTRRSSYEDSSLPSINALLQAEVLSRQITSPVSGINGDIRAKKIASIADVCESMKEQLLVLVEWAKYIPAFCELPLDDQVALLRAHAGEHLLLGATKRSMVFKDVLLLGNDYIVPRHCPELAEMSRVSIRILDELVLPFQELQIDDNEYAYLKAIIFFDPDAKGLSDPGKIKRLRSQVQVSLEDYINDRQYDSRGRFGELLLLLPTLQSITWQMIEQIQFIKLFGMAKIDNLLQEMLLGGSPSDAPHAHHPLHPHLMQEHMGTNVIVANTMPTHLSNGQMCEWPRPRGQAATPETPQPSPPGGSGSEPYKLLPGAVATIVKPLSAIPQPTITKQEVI
FGF22 binding: binders of recombinant human FGF22 by thermal shift; Q9HCT0; SYPRO orange fluorescence; percent of sucrose octasulfate shift, DMSO zero; calls only at 9.99 µM; 1.5% of 340,000 active;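 active = melting point raised past a set limit in the mean and every replicate; three in four hits are not shown here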
Target sequence (Q9HCT0 whole entry, looked up): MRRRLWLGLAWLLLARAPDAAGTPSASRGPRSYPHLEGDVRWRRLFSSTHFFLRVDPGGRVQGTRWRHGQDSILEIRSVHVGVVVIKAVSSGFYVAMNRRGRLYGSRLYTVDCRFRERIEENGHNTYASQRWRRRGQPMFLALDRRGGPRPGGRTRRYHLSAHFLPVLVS
E coli growth: E. coli growth inhibition; OD600 absorbance (test concentration not listed); Escherichia coli growth, OD600, 23 h; hits give low values; 0.21% of 330,000 active;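 active = OD600 absorbance below the run mean of sample wells minus 3.6 SD, in any replicate, cut at about 0.56 in these data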;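 also: stock transfer was 300 nL into about 60 µL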
rRNA inh HTS OD600: recorded beside rRNA inh HTS, whose call it bears; OD600 change, %; measured here: OD600 growth;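 optical density of the mix in the first replicate; 0 = DMSO median and -100 = no signal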
rRNA inh HTS RFP: further read-out of rRNA inh HTS, marked with its call; RFP signal change, %; measured here: RFP humanized mutant strains;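 first replicate; 0 = DMSO median and -100 = no signal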
* hit, by the source's call.

`O=C(NNC(=S)NCc1ccccc1)c1ccc(OC(F)F)cc1` gave Beta2AR agonist 2.8, UCH37 inh 2.3, HNF4A DNA FP 2.2, FGF22 binding inactive and E coli growth 0.624.
For O=C(Nc1cccc(C(=O)O)c1)/C(=C\c1ccc2c(c1)OCO2)NC(=O)c1ccccc1 the results were rRNA inh HTS -2.6, Beta2AR agonist 10.3, ALR inh -20.5, UCH37 inh 6.7, HNF4A DNA FP 1.0, FGF22 binding inactive, E coli growth 0.685, rRNA inh HTS OD600 3.1 and rRNA inh HTS RFP 2.7.
Screening O=C(O)C(=Cc1cc2c(cc1[N+](=O)[O-])OCO2)c1cc2c(cc1Br)OCO2 returned rRNA inh HTS -7.0, Beta2AR agonist -6.9, HNF4A DNA FP -3.0, FGF22 binding inactive, rRNA inh HTS OD600 -8.5 and rRNA inh HTS RFP 3.4.
COC(=O)c1ccc(C2NC(=O)CCC2[N+](=O)[O-])cc1 (configuration not stated) was read as rRNA inh HTS 8.7, Beta2AR agonist -5.8, ALR inh -9.1, UCH37 inh 0.2, HNF4A DNA FP -3.0, FGF22 binding inactive, E coli growth 0.702, rRNA inh HTS OD600 14.0 and rRNA inh HTS RFP -0.8.
Screening CC(C)(C)C1=CC(O)(c2ccccc2)C=C(C(C)(C)C)C1=O returned rRNA inh HTS -2.4, Beta2AR agonist 12.2, ALR inh -10.9, UCH37 inh 2.2, HNF4A DNA FP -6.1, FGF22 binding inactive, E coli growth 0.648, rRNA inh HTS OD600 9.8 and rRNA inh HTS RFP -0.2.
Screening Cn1nnnc1SCC(=O)NC(C)(C)C returned Beta2AR agonist 8.0, ALR inh -7.1, UCH37 inh 0.2, HNF4A DNA FP -0.2 and E coli growth 0.721.
`Cc1cc(C(=O)NC2=NCCS2)c2ccccc2n1` gave rRNA inh HTS 15.7, Beta2AR agonist -4.6, ALR inh -4.0, UCH37 inh 3.6, HNF4A DNA FP 0.5, FGF22 binding inactive, E coli growth 0.663, rRNA inh HTS OD600 1.0 and rRNA inh HTS RFP 3.1.
Screening COc1ccc(C(=O)N2CCCC(C)(C(=O)NS(=O)(=O)C3CC3)C2)c(OC)c1 (configuration not stated) returned rRNA inh HTS 5.5, HNF4A DNA FP 3.2, FGF22 binding inactive, rRNA inh HTS OD600 15.9 and rRNA inh HTS RFP 0.9.
For COc1cccc(N=Nc2ccc3cccnc3c2O)c1 the results were rRNA inh HTS 11.2, Beta2AR agonist 6.8, UCH37 inh 2.7, HNF4A DNA FP -0.7, FGF22 binding inactive, E coli growth 0.712, rRNA inh HTS OD600 5.2 and rRNA inh HTS RFP 1.3.
`CCCn1c(SCC(=O)N2CCN(c3ccccc3)CC2)nc2ccccc2c1=O` gave Beta2AR agonist -7.2, ALR inh 2.3, UCH37 inh 1.3, HNF4A DNA FP 3.2 and E coli growth 0.665.
`Cn1cccc1Cc1nnc(SCC(=O)Nc2cccc(F)c2)n1CCc1ccccc1` gave rRNA inh HTS -16.2, Beta2AR agonist -3.1, ALR inh 12.9, UCH37 inh 3.0, HNF4A DNA FP -0.5, FGF22 binding inactive, E coli growth 0.732, rRNA inh HTS OD600 -20.1 and rRNA inh HTS RFP -0.6.
O=C(CN1C(=O)C(=O)N(Cc2ccccc2)C1=O)Nc1ccc(OC(F)F)cc1 was read as rRNA inh HTS 8.3, Beta2AR agonist -1.8, ALR inh -2.6, UCH37 inh -1.3, HNF4A DNA FP 1.2, FGF22 binding inactive, E coli growth 0.653, rRNA inh HTS OD600 16.9 and rRNA inh HTS RFP 0.8.

Random excerpt: two records from the list, in no set order.
Screening CC(C)(C)C1=CC(O)(c2ccccc2)C=C(C(C)(C)C)C1=O returned rRNA inh HTS -2.4, Beta2AR agonist 12.2, ALR inh -10.9, UCH37 inh 2.2, HNF4A DNA FP -6.1, FGF22 binding inactive, E coli growth 0.648, rRNA inh HTS OD600 9.8 and rRNA inh HTS RFP -0.2.
O=C(CN1C(=O)C(=O)N(Cc2ccccc2)C1=O)Nc1ccc(OC(F)F)cc1 was read as rRNA inh HTS 8.3, Beta2AR agonist -1.8, ALR inh -2.6, UCH37 inh -1.3, HNF4A DNA FP 1.2, FGF22 binding inactive, E coli growth 0.653, rRNA inh HTS OD600 16.9 and rRNA inh HTS RFP 0.8.

Additional structures
`CC(C)(C)c1ccccc1NC(=O)CN1C(=O)NC2(CCCCCC2)C1=O` gave rRNA inh HTS 2.1, Beta2AR agonist -4.2, ALR inh -0.9, UCH37 inh 2.8, HNF4A DNA FP -0.9, FGF22 binding inactive, E coli growth 0.71, rRNA inh HTS OD600 9.4 and rRNA inh HTS RFP -0.9.
Screening CSCCC(=O)N(C)CC1CCCN(CCc2cccc(C(F)(F)F)c2)C1 (configuration not stated) returned rRNA inh HTS 4.3, Beta2AR agonist -9.6, UCH37 inh -0.8, HNF4A DNA FP 0.0, FGF22 binding inactive, E coli growth 0.681, rRNA inh HTS OD600 -16.3 and rRNA inh HTS RFP -1.9.
O=C(Nc1ccc2c(c1)OCO2)N1CCCc2ccccc21 was read as rRNA inh HTS 4.8, Beta2AR agonist 10.1, ALR inh 28.5, UCH37 inh 1.7, HNF4A DNA FP 3.6, FGF22 binding inactive, E coli growth 0.685, rRNA inh HTS OD600 -1.0 and rRNA inh HTS RFP -4.2.
COCCOC(=O)c1c(NC(=O)CSc2cccc[n+]2[O-])sc(C(N)=O)c1C was read as rRNA inh HTS 12.2, Beta2AR agonist 9.4, ALR inh -5.6, UCH37 inh 3.5, HNF4A DNA FP 3.7, FGF22 binding inactive, E coli growth 0.705, rRNA inh HTS OD600 2.4 and rRNA inh HTS RFP 0.2.
Screening Cc1ccccc1C(=O)c1cccn1CC(=O)NCc1cccc(Cl)c1 returned rRNA inh HTS -0.4, Beta2AR agonist 4.3, ALR inh 0.0, UCH37 inh 0.0, HNF4A DNA FP 2.6, FGF22 binding inactive, E coli growth 0.712, rRNA inh HTS OD600 0.3 and rRNA inh HTS RFP -0.9.
Screening C=CCNc1nc(C(=O)OC(C)C(=O)c2ccc(C)cc2)cs1 (configuration not stated) returned rRNA inh HTS 1.0, Beta2AR agonist 5.2, ALR inh -7.2, UCH37 inh -0.9, HNF4A DNA FP -0.7, FGF22 binding inactive, E coli growth 0.698, rRNA inh HTS OD600 1.2 and rRNA inh HTS RFP 0.1.
For Cc1cc(N2CCCC2)ccc1NC(=O)COc1ccccc1 the results were rRNA inh HTS -1.7, Beta2AR agonist 18.2, UCH37 inh -14.2, HNF4A DNA FP 13.9, FGF22 binding inactive, E coli growth 0.648, rRNA inh HTS OD600 0.7 and rRNA inh HTS RFP -0.5.
For COc1ccc(S(=O)(=O)N2CCN3CCCC3C2)cc1 (configuration not stated) the results were rRNA inh HTS 13.8, Beta2AR agonist -7.4, ALR inh -2.1, UCH37 inh 3.7, HNF4A DNA FP -3.0, FGF22 binding inactive, E coli growth 0.674, rRNA inh HTS OD600 6.0 and rRNA inh HTS RFP 1.1.
`O=C(Oc1coc(CSc2nnc(NC(=O)c3cccs3)s2)cc1=O)c1ccccc1` gave Beta2AR agonist -1.4, ALR inh 10.2, UCH37 inh -1.1, HNF4A DNA FP -1.3, FGF22 binding inactive and E coli growth 0.665.
For CCCCN(C(=O)c1cccc(S(=O)(=O)N2CCN(C)CC2)c1)c1c(N)n(CCC)c(=O)[nH]c1=O the results were rRNA inh HTS -1.3, Beta2AR agonist -7.9, UCH37 inh 1.7, HNF4A DNA FP 1.5, FGF22 binding inactive, E coli growth 0.695, rRNA inh HTS OD600 0.5 and rRNA inh HTS RFP 1.0.
COc1cccc(/C=N/Nc2ncc(C(F)(F)F)cc2Cl)c1O was read as Beta2AR agonist 2.5, ALR inh -16.5 and HNF4A DNA FP 3.1.
CCN(CC)S(=O)(=O)c1ccc(C(=O)Nc2cc(C)on2)cc1 was read as rRNA inh HTS 7.5, Beta2AR agonist -3.2, UCH37 inh 6.4, HNF4A DNA FP 1.0, FGF22 binding inactive, E coli growth 0.657, rRNA inh HTS OD600 11.8 and rRNA inh HTS RFP -2.4.
`COc1cc(C(=O)O)ccc1OCC(=O)N1CCOCC1` gave rRNA inh HTS 5.8, Beta2AR agonist -7.4, ALR inh -7.1, UCH37 inh -1.4, HNF4A DNA FP -1.2, E coli growth 0.752, rRNA inh HTS OD600 15.4 and rRNA inh HTS RFP -0.3.
COc1ccc(OC)c(NC(=O)Cc2csc(NC(=O)Nc3ccccc3OC)n2)c1 was read as rRNA inh HTS -28.2, Beta2AR agonist 3.0, ALR inh -11.8, UCH37 inh 1.5, HNF4A DNA FP 1.3, FGF22 binding inactive, E coli growth 0.611, rRNA inh HTS OD600 -37.6 and rRNA inh HTS RFP 15.1.
`CCSc1ccc(-c2cc(NC=O)c3ncc(-c4cccc(C(=O)N(C)C)c4)n3c2)cc1` gave rRNA inh HTS 0.8, HNF4A DNA FP 4.2, FGF22 binding inactive, rRNA inh HTS OD600 3.3 and rRNA inh HTS RFP 34.7.
Screening CS(=O)(=O)N(CC(=O)N/N=C/c1cc2c(cc1Br)OCO2)c1ccccc1Br returned Beta2AR agonist 3.8, ALR inh -1.5 and HNF4A DNA FP 1.4.
Cc1ccc(C(CNC(=O)Nc2ccccc2)N2CCN(C)CC2)cc1 (configuration not stated) was read as rRNA inh HTS 1.6, Beta2AR agonist 0.6, ALR inh -5.4, UCH37 inh -0.3, HNF4A DNA FP 0.0, FGF22 binding inactive, E coli growth 0.654, rRNA inh HTS OD600 -1.5 and rRNA inh HTS RFP -2.0.
Screening COc1nc(-c2ccncc2)nc2ccccc12 returned Beta2AR agonist -5.1, ALR inh -3.0, UCH37 inh -1.2, HNF4A DNA FP -2.0 and E coli growth 0.677.
For O=C(O)CCC(=O)Nc1ccc(OCC(=O)O)cc1 the results were Beta2AR agonist 15.2, ALR inh -6.7, UCH37 inh 2.0, HNF4A DNA FP -5.3 and E coli growth 0.662.
Screening CN1CCN(C(=O)c2cn(-c3ccccc3)nc2-c2cccnc2)CC1 returned Beta2AR agonist -17.0, UCH37 inh 1.5, HNF4A DNA FP 1.1 and E coli growth 0.7.
`Cc1ccnc(SCCn2c(N3CCC(C)CC3)nc3c2c(=O)n(C)c(=O)n3C)n1` gave Beta2AR agonist -33.2, ALR inh 1.3, UCH37 inh 3.9, HNF4A DNA FP 3.7 and E coli growth 0.705.
For COc1ccc(Cc2n[nH]c(=O)c3ccccc23)cc1OC the results were Beta2AR agonist 3.0, UCH37 inh -0.6, HNF4A DNA FP 1.6 and E coli growth 0.673.
`COCc1c(C(=O)NC(C)c2ccc(S(N)(=O)=O)cc2)oc2ccccc12` (configuration not stated) gave rRNA inh HTS 5.0, Beta2AR agonist 0.0, ALR inh -1.7, UCH37 inh 3.3, HNF4A DNA FP 4.2, FGF22 binding inactive, E coli growth 0.704, rRNA inh HTS OD600 14.2 and rRNA inh HTS RFP 4.8.
Screening Cc1ccc(NC(=O)Cc2n[nH]c(=S)n2C)cc1 returned rRNA inh HTS 10.4, Beta2AR agonist 2.6, UCH37 inh 0.4, HNF4A DNA FP -0.7, E coli growth 0.709, rRNA inh HTS OD600 6.2 and rRNA inh HTS RFP -3.1.
Screening CC(c1ccccc1)N1CNc2c(c(=O)n(C)c(=O)n2C)C1 (configuration not stated) returned rRNA inh HTS 4.6, Beta2AR agonist -6.1, ALR inh -4.3, UCH37 inh -4.4, HNF4A DNA FP -1.8, E coli growth 0.755, rRNA inh HTS OD600 12.6 and rRNA inh HTS RFP -4.6.
For COc1ccc(/C=C/C(=O)OCC(=O)NCc2ccccc2)cc1OC the results were rRNA inh HTS -24.1, Beta2AR agonist -8.3, UCH37 inh -17.2, HNF4A DNA FP 2.2, FGF22 binding inactive, E coli growth 0.658, rRNA inh HTS OD600 -23.2 and rRNA inh HTS RFP -1.4.

An excerpt; the hit share may differ from the screen's.
